TRPV1 PAM – human TRPV1 potentiation. TRPV1-expressing cells, Fluo-8 calcium influx, capsaicin EC20 potentiation; host cell line not named in the record; control for the full effect not named in the record. 320,000 compounds, 0.02% hits. potentiation, % at 8.33 µM. Q8NER1; active means potentiation above 80%; inconclusive means 30% to 80%; inactive means below 30%; note: 0% is about no effect
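Cells expressing TRPV1 were dye-loaded with Fluo-8 and read kinetically: 10 s baseline, 3 min after compound (agonist portion), then 2 min after EC20 capsaicin (allosteric enhancer portion). Calcium-bound dye fluorescence at 480/520 nm.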
TRPML1 blocker – blocks the human TRPML1 channel; Q9GZU1; TRPML1-inducible cells, Ca2+ dye fluorescence, FDSS; stronger effect = lower value; inhibition of EC80 agonist-evoked calcium signal; activity change, negative = inhibition, % (test concentration not listed); 390,000 compounds, 0.02% hits; in the data active means activity change below about -50%; inconclusive means about -30% to -50%; inactive means above about -30%;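 note: stimulus is agonist 54-4 at its EC80 concentration; % is set by controls: 0 for no effect and ±100 for the full control effect; compound concentration not given in the record; the text of the record puts the active cut at -80%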
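TRPML1-DL cells, Tet-induced overnight (~16 h, 37 °C) at 1,500 cells/well, were loaded with Ca8 no-wash dye plus quencher for 45-90 min at room temperature. Compounds were pinned during FDSS kinetic reading; agonist 54-4 at EC80 (4 uM final) then added.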
TRPML1 ag – agonists of human TRPML1 channel | activation, % (no concentration beside the values) | TRPML1-expressing cells, Ca2+ dye fluorescence, FDSS; host cell line not named in the record; reference of the full effect not given here | Q9GZU1 | 410,000 compounds, 0.12% hits | AID 624414; in the data active = activation above about 50%; inconclusive = about 30% to 50%; inactive = below about 30%; note: 0% is about no effect; the text of the record puts the active cut at 80%
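Calcium fluorescence on an FDSS kinetic reader gave the read-out. Tet-induced TRPML1-DL cells were plated overnight, dye-loaded (Ca8 with quencher, 45-90 min, room temperature, dark), then read 110 s after compound addition, and again 110 s after 4uM final 54-4 (EC80).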
Six1-Eya2 blk – Six1/Eya2 interaction inhibition; Q15475+O00167; AlphaScreen GST-Six1/His-Eya2 binding, biochemical; stronger effect = lower value; control for the full effect not named in the record; activity change, % (concentration not given with the values); 360,000 compounds, 0.56% hits; AID 651725; in the data active = activity change below about -65%; inconclusive = about -30% to -65%; inactive = above about -30%; note: % is set by controls: 0 for no effect and ±100 for the full control effect
Target sequence (O00167 whole entry, looked up): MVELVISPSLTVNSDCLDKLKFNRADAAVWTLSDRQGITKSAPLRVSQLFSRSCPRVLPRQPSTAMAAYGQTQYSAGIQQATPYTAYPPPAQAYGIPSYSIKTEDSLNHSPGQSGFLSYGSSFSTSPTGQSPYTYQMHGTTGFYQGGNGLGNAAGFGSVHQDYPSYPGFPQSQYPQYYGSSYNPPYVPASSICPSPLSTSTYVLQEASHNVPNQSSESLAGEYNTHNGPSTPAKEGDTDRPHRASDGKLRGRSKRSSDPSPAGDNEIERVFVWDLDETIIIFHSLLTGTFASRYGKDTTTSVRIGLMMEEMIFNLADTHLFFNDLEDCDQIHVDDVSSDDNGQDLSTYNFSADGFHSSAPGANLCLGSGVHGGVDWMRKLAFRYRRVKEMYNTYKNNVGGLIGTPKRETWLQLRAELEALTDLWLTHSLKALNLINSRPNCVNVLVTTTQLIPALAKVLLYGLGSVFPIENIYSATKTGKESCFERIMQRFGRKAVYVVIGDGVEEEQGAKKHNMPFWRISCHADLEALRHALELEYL
Target sequence (Q15475 whole entry, looked up): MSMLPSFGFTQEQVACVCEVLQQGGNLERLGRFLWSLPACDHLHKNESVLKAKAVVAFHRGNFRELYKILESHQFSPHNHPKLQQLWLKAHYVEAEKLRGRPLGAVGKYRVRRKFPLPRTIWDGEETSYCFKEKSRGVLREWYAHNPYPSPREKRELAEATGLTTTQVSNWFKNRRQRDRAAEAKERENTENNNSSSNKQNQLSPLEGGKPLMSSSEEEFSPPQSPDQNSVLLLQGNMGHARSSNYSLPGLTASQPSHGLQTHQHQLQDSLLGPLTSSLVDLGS
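AlphaScreen luminescence read after one hour at 37 °C in darkness. Pin-transferred compounds met GST-Six1 and His-Eya2 protein (5X stock 250 nM/500 nM) plus glutathione donor and Ni-chelate acceptor beads (5X, 50 ug/mL).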
CtBP-E1A inh – CtBP/E1A binding inhibition | AlphaScreen GST-E1A/His-CtBP binding, 1536-well; stronger effect = lower value; control for the full effect not named in the record | activity change, % (concentration not given with the values) | 340,000 compounds, 0.49% hits | AID 651724; in the data active means activity change below about -65%; inconclusive means about -30% to -65%; inactive means above about -30%; note: % is set by controls: 0 for no effect and ±100 for the full control effect
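AlphaScreen with 125 nM GST-E1A and 125 nM His-CtBP (5X stocks) in Tris pH 8.0, 300 mM NaCl, BSA, Tween 20, TCEP. Compounds preincubated 2 h at 37 deg C, then glutathione donor/nickel acceptor beads added for 1 h at 37 deg C in dark.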
D2 potentiator – potentiates the human D2 dopamine receptor allosterically; P14416; DiscoveRx D2 beta-arrestin cells, luminescence, 90 min; 100% = 57 uM dopamine signal; potentiation, % (concentration not given with the values); 360,000 compounds, 0.23% hits; active = potentiation of 50% or more; inconclusive = 30% to 50%; inactive = 30% or less;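 note: tested on top of an EC20 dose of dopamine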
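D2 cells co-treated with compound plus 50 nM dopamine (EC20) for 90 min at 37 deg C to detect potentiation. Beta-arrestin recruitment was read as enzyme-fragment luminescence after 1 h at ambient temperature. Full response was set by 57 uM dopamine.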
The depositor's hits bear a star; ? = inconclusive; / = no result given; & = joins results of further samples.

1. N/C(=N\OC(=O)CC1CCCCC1)c1cccc([N+](=O)[O-])c1
2. O=C(Cc1ccc([N+](=O)[O-])cc1)Nc1cc(C(F)(F)F)cc(C(F)(F)F)c1
3. O=c1c2cnn(-c3ccc(F)cc3)c2ncn1Cc1ccc(F)cc1
4. O=C(C=NNc1ccccc1)c1ccccc1
5. CC(C)N(C(=O)Cn1cc(SCC(=O)N2CCCC2)c2ccccc21)C(C)C
6. O=C(NC(=S)Nc1ccc(Oc2ccccc2)cc1)c1ccc(Cl)cc1
7. O=C(Nc1nc(-c2ccc(-c3ccccc3)cc2)cs1)c1cc([N+](=O)[O-])ccc1N1CCOCC1
8. CSc1nsc(/C=C/Nc2ccc(F)cc2)c1C#N

screen / no.	1	2	3	4	5	6	7	8
TRPV1 PAM	-11	-10	-4	/	-1	21	0	3
TRPML1 blocker	-11	-10	14&-3	20	12	18	24	10
TRPML1 ag	0.7	0.8	0.4&-0.3	-0.6	0.5	1.4	0.5	0.0
Six1-Eya2 blk	-2	6	1	-24	-6	-14	18	1
CtBP-E1A inh	-3	0	2	-23	5	-4	/	/
D2 potentiator	14	-1	-3	-9	-8	1	-4	4

As entered above:
#4 in CtBP-E1A inh is listed with -23
#3 in Six1-Eya2 blk is listed with 1

(listing goes on)
9. CC1CCCCC1NC(=O)Cc1ccc(S(=O)(=O)N2CCOCC2)s1 (stereo not given)
10. COc1ccc(C(=O)Nc2cc3c4c(c2)C(C)C(=O)N4CCC3)cc1OC (stereo not given)
11. CCn1cc(CN2CCC(n3nccc3NC(=O)C3CCCC3)CC2)cn1
12. COc1cccc2c1OCC/C2=N\NC(=O)COc1ccccc1C
13. CCCc1cc(C(=O)OC)c(NC(=O)CCCC(=O)O)s1
14. COc1ccc(Cl)cc1S(=O)(=O)Nc1cccc(C(=O)O)c1
15. CCc1ccccc1Nc1nc(N)nc(COC(=O)C2=COCCO2)n1
16. CCCOc1ccc(OCC(=O)c2[nH]c(C)c(C(C)=O)c2C)cc1

screen / no.	9	10	11	12	13	14	15	16
TRPV1 PAM	-20	11	2	7	9	-4	4	7
TRPML1 blocker	0	-19	27	17	13	0	-10	-14
TRPML1 ag	-0.7	0.2	-0.8	0.3	-0.1	0.0	1.2	4.1
Six1-Eya2 blk	2	-8	3	2	-20	6	3	-3
CtBP-E1A inh	2	4	5	-5	-3	-1	0	6
D2 potentiator	29	19	-1	-7	-1	15	-2	5

Profiles, looked up by structure. Values in the order: TRPV1 PAM	TRPML1 blocker	TRPML1 ag	Six1-Eya2 blk	CtBP-E1A inh	D2 potentiator
Listed for COc1ccc(Cl)cc1S(=O)(=O)Nc1cccc(C(=O)O)c1 : -4	0	0.0	6	-1	15
Listed for COc1cccc2c1OCC/C2=N\NC(=O)COc1ccccc1C : 7	17	0.3	2	-5	-7
Listed for CCCc1cc(C(=O)OC)c(NC(=O)CCCC(=O)O)s1 : 9	13	-0.1	-20	-3	-1
Listed for COc1ccc(C(=O)Nc2cc3c4c(c2)C(C)C(=O)N4CCC3)cc1OC (stereo not given) : 11	-19	0.2	-8	4	19
Listed for CCCOc1ccc(OCC(=O)c2[nH]c(C)c(C(C)=O)c2C)cc1 : 7	-14	4.1	-3	6	5

Continued.
17. Nn1c(SCC(=O)Nc2ccc(S(=O)(=O)N3CCCC3)cc2)nnc1C(F)(F)F
18. C/C(N)=C(/C#N)C(=O)CSc1nnc(-c2ccc(OC(F)F)cc2)o1
19. COC(=O)Cn1c(=NC(=O)C2COc3ccccc3O2)sc2cc(S(N)(=O)=O)ccc21 (stereo not given)
20. COc1ccccc1NC(=O)CCS(=O)(=O)c1cc2c(cc1Cl)NC(=O)CO2
21. Cc1cc(NC(=O)Cn2c(=O)oc3ccccc32)no1
22. COC(=O)c1ccc(NCc2c(O)ccc(O)c2Br)cc1Cl
23. O=C(NCc1ccncc1)C(=O)Nc1nc(C23CC4CC(CC(C4)C2)C3)cs1
24. COc1ccccc1NC(=O)CSc1nc(=O)n(CCN(C)C)c2c1CCCC2

screen / no.	17	18	19	20	21	22	23	24
TRPV1 PAM	-31	-2	-5	0	-10	/	-18	-1
TRPML1 blocker	5	2&0	23	8	12	-12	-15	-13
TRPML1 ag	1.4	0.6&-0.1	0.1	0.4	0.0	0.0	3.3	0.6
Six1-Eya2 blk	-13	-7&-3	-3	3	-1	-12	14	-5
CtBP-E1A inh	-11	-2&4	9	10	-5	3	2	-6
D2 potentiator	-19	-6&4	-18	7	-3	?	-2	-17

25. O=C(Nc1ccc(O)c(-c2nc3ccccc3s2)c1)c1cccs1
26. COc1ccc(CCNC(=O)c2nnn(CC(=O)Nc3ccccc3C)c2N)cc1OC
27. O=C(Nc1ccc(N2CCOCC2)cc1)c1cccc2c(Br)cccc12
28. O=C(NCc1cccnc1)c1cc(C2CCCCN2C(=O)c2ccc(Cl)cc2)on1 (stereo not given)
29. COc1ccc(S(=O)(=O)NCC2CCC(C(=O)NCc3ccc(F)cc3)CC2)cc1 (stereo not given)
30. O=C(NCCc1ccc(F)cc1)C1CCCCC1
31. CCC(=O)c1c[nH]c(C(=O)NCc2cccnc2)c1
32. FC(F)(F)c1ccccc1NC(=S)N/N=C1\CC2CC=CC12 (stereo not given)

screen / no.	25	26	27	28	29	30	31	32
TRPV1 PAM	3	/	14	/	15	-18	6	4
TRPML1 blocker	11	11	27	/	49	27	-10	-9
TRPML1 ag	0.0	3.1	-0.9	-0.7	0.1	0.3	0.5	-0.5
Six1-Eya2 blk	2	2	-4	-6	-2	-1	2	-1
CtBP-E1A inh	19	-1	14	-5	/	0	16	-1
D2 potentiator	-25	15	-5	-7	-1	1	-5	-7

33. CC(C)(C)N(Cc1ccccc1)C(=O)c1cc2ccccc2o1
34. O=[N+]([O-])c1ccccc1S(=O)(=O)N1CCc2ccccc2C1
35. O=C(Oc1cccc2cccnc12)c1cccc([N+](=O)[O-])c1
36. COc1cc(OC)cc(C(=O)NCC(=O)OC(C)C(=O)NC(C)C2CC3CCC2C3)c1 (stereo not given)
37. COC(=O)c1ccc(Oc2nc(C(N)=O)cc(-c3ccccc3)n2)cc1
38. CCOc1cc(/C=N/NC(=O)c2cccnc2)ccc1OCc1ccc(C(=O)OC)o1
39. COc1ccc(CNC(=O)c2onc(C)c2Cl)cc1
40. CCOC(=O)C1=CN(Cc2cccc(F)c2)S(=O)(=O)N(C)C1c1ccccc1 (stereo not given)

screen / no.	33	34	35	36	37	38	39	40
TRPV1 PAM	-11	-2	-4	/	2	2	0	/
TRPML1 blocker	/	9	8	-11	-5	9	4	19
TRPML1 ag	/	-0.6	0.6	0.9	1.8	0.8	-0.8	-0.3
Six1-Eya2 blk	-2	-3	-69*	-10	-4	-4	4	4
CtBP-E1A inh	/	-3	-75*	-3	2	0	5	8
D2 potentiator	10	-5	-3	-24	1	5	-2	/

41. O=C(N/N=C/c1cc([N+](=O)[O-])ccc1O)c1c[nH]c2ccccc12
42. O=C(CN(Cc1ccccc1Cl)C(=O)c1ccc(CN2CCOCC2)o1)NCC1CCCO1 (stereo not given)
43. COc1ccc(N2CCN(C(=O)c3ccc(-c4nc5ccccc5s4)o3)CC2)cc1
44. COc1ccc(C2CC(c3cccs3)=NN2c2nc(C)c(C(C)=O)s2)cc1OC (stereo not given)
45. Cc1cccc(-c2ccc(C=Nc3c(C)n(C)n(-c4ccccc4)c3=O)o2)c1
46. CC1CN(C(=O)c2scc3c2OCCO3)CC(C)O1 (stereo not given)
47. O=S(=O)(c1ccc(Br)s1)N1CCc2ccccc2C1
48. Cc1cc(CSc2ccccc2)ccc1NC(=O)c1ccc(CN2CCOCC2)cc1

screen / no.	41	42	43	44	45	46	47	48
TRPV1 PAM	-13	5	4	3	-8	/	-9	-17
TRPML1 blocker	/	3	0	15	3	-3	20	0
TRPML1 ag	/	1.8	-0.2	0.5	-0.1	-0.2	0.4	0.2
Six1-Eya2 blk	-86*	1	-1	28	?	1	30	-6
CtBP-E1A inh	-78*	5	5	/	-8	5	37	7
D2 potentiator	-11	-45	-4	-1	-22	9	1	1

49. C[C@@H]1CN([C@H](C)CO)C(=O)CCCn2nncc2CO[C@H]1CN(C)Cc1ccccc1C(=O)O
50. O=S1(=O)CCN(Cc2cccnc2)CC1
51. Cc1ccc(C)c(S(=O)(=O)NCC(=O)Nc2sc3c(c2C(N)=O)CCC(C)C3)c1 (stereo not given)
52. COc1ccccc1C(C)NC(=O)c1ccc(NC(=O)CC2SC(N3CCCC3)=NC2=O)cc1 (stereo not given)
53. CCNS(=O)(=O)c1ccc(NC(=O)c2cc(C(F)(F)F)nn2C)cc1
54. CSCc1cc(N(C)C)nc(SCc2ccc(Cl)cc2Cl)n1
55. Cc1ccc(C(=O)C(C)OC(=O)C2CCN(c3ccc(C(F)(F)F)cn3)CC2)cc1 (stereo not given)
56. CCOC(=O)C1CCCN(c2nc3ccccc3nc2C(C#N)C(=O)NCc2ccccc2)C1 (stereo not given)
57. O=C(CCOc1ccccc1)NCC(c1ccco1)N1CCCCC1 (stereo not given)

screen / no.	49	50	51	52	53	54	55	56	57
TRPV1 PAM	/	/	-6	2	-16	3	9	0	-17
TRPML1 blocker	-3	-1	19	7	-11	46	25	-3	-3
TRPML1 ag	0.7	-0.2	-0.1	0.7	-0.3	2.4	2.7	5.3	-0.6
Six1-Eya2 blk	-1	12	0	-1	-2	5	34	1	0
CtBP-E1A inh	5	0	11	6	-4	9	-12	15	3
D2 potentiator	2	-8	-4	4	-8	-7	-12	-27	-9

Part of the list above, with each value named:
53: CCNS(=O)(=O)c1ccc(NC(=O)c2cc(C(F)(F)F)nn2C)cc1
- TRPV1 PAM: -16
- TRPML1 blocker: -11
- TRPML1 ag: -0.3
- Six1-Eya2 blk: -2
- CtBP-E1A inh: -4
- D2 potentiator: -8
50: O=S1(=O)CCN(Cc2cccnc2)CC1
- TRPV1 PAM: /
- TRPML1 blocker: -1
- TRPML1 ag: -0.2
- Six1-Eya2 blk: 12
- CtBP-E1A inh: 0
- D2 potentiator: -8

High-throughput results: PubChem, National Center for Advancing Translational Sciences (NCATS)
